# Bioassay records from PubChem BioAssay.
# Bead autofluor: compound fluorescence in toxin protease inhibitor counterscreen | compound autofluorescence counterscreen, microsphere flow cytometry; hits give high values | fluorescence intensity (concentration not given with the values) | actives 3.1% (n = 360,000) | AID 624483;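 active = at least 3 SD above the mean of all compounds, about 16000 in these data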;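 also: 100 nL of 1 mM stock went into each well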
# Active calls of the source: *. Only part of the results is shown. The share of hits here may be higher or lower than overall.
smiles | Bead autofluor
Cc1ccc(/C(O)=C2\C(=O)C(=O)N(CCCN3CCOCC3)C2c2ccccc2F)cc1 (stereo unspecified) | 2882
COc1ccc(NC(=O)C2(C)CCN2Cc2csc3ccccc23)cc1OC (stereo unspecified) | 3439
Cc1ccc(C(=O)NCCN2CCC(n3c(=O)[nH]c4ccccc43)CC2)cc1C | 5964
O=C(NCCc1ccccc1)C1Cc2c(-c3ccccc3Oc3ccccc3)ccnc2O1 (stereo unspecified) | 3792
Cc1cccc(S(=O)(=O)NC(=O)C2(C)CCN2C(=O)CCC2CCCC2)c1 (stereo unspecified) | 3789
O=C(COC(=O)/C=C/c1cccc(C(F)(F)F)c1)Nc1cccc(S(=O)(=O)NC2=NCCC2)c1 | 3719
O=C1NCN(c2ccccc2)C12CCN(C(c1cc3ccccc3o1)c1nnnn1C1CCCCC1)CC2 (stereo unspecified) | 5306
Cc1cccc(C)c1NC(=O)C1(C)CCC(=O)N1c1cc(C(C)(C)C)nn1C (stereo unspecified) | 5732
CCCN(CC(=O)NC(=O)NCc1ccccc1)CC(=O)Nc1ccc(F)c(F)c1F | 3836
COc1cc2c(cc1OC)C(c1ccccc1)N(Cc1ccc(S(=O)(=O)NC(=O)c3ccco3)cc1)CC2 (stereo unspecified) | 5784
COC(=O)[C@]12CCCCC=C1N(Cc1ccc(Cl)cc1Cl)C(=O)[C@H](CC(=O)NCCCN1CCCC1=O)C2 | 4168
C[C@@H]1CN([C@@H](C)CO)C(=O)c2cc(Br)cnc2O[C@@H]1CN(C)S(=O)(=O)c1ccc(F)cc1 | 3021
Cc1cccc(C)c1C(O)c1ncc(-c2ccc(Cl)cc2)[nH]1 (stereo unspecified) | 3388
CN(C)c1ccccc1 | 3421
COC(=O)[C@@H](Cc1ccccc1)NC(=O)[C@H]1O[C@@H](n2cnc3c(N)ncnc32)[C@H](O)[C@@H]1O | 5332
COC(=O)[C@@]1(Cc2ccc(F)cc2)[C@H]2c3cc(C(=O)N4CCCC4)n(CCF)c3C[C@H]2CN1C(=O)c1ccccc1 | 6376
COc1ccc(CN(C)C(=O)C2CC(=O)N(c3ccc4c(c3)OCCO4)C2)cc1 (stereo unspecified) | 3574
CC(=O)OC1CC2C(C)(C)C(=O)C=CC2(C)C2CCC3(C)C(c4ccoc4)OC(=O)C4OC43C12C (stereo unspecified) | 5789
COc1ccc(-c2sc3ccccc3c2-c2cc(OC)ccc2C=O)cc1 | 5534
COCCN1C[C@@H](CO)O[C@@H](n2cnc3c(N4CCN(c5ccccc5)CC4)ncnc32)C1 | 3804
CC1(C(=O)NS(=O)(=O)Cc2cccc(Cl)c2)CCN1C(=O)C1CCCCC1 (stereo unspecified) | 4234
Cc1cn([C@H]2C[C@H](O)[C@@H](CNC(=O)[C@H](N)C3CC3)O2)c(=O)[nH]c1=O | 3657
Cc1ccc(CN(C)C(=O)CCNC(=O)c2ccc(Cl)cc2)o1 | 3872
CC(=O)N1CCN(c2ccc(NC(=O)c3cccc(F)c3)cc2)CC1 | 2772
CCCCc1ccc(NC(=O)COC(=O)c2ccc3ncsc3c2)cc1 | 3673
COCCN(Cc1ccccc1)C(=O)c1cccc(S(=O)(=O)N2CCN(Cc3ccccc3)CC2)c1 | 3972
CC1(C(=O)NS(=O)(=O)c2ccccc2Cl)CCN1C(=O)C1(c2ccccc2)CC1 (stereo unspecified) | 3567
Cc1cc(C)c2c(=O)n3c(nc2c1)C(C)NC(=O)c1cccnc1-3 (stereo unspecified) | 4445
Cc1ccc(S(=O)(=O)N2C[C@H]3C(=O)C[C@@H](c4ccc(Cl)cc4)N(S(=O)(=O)c4ccc(C)cc4)[C@H]3C[C@H]2c2cccc3ccccc23)cc1 | 6073
CCCNC(=O)C1(C)CCN1C(=O)C1(c2ccccc2)CC1 (stereo unspecified) | 3568
COc1ccc(OC)c(CN2C(=O)c3ccccc3C2c2nnnn2Cc2ccccc2)c1 (stereo unspecified) | 5998
Cc1ccc(C)c(NC(=O)COC(=O)c2c(-c3ccccc3)noc2C)c1 | 3673
CC1C(=O)N(Cc2cn(CCC3OCCCO3)nn2)CCS(=O)(=O)N1Cc1ccc(-c2ccc(Cl)cc2)cc1 (stereo unspecified) | 3447
CC(CC(=O)Nc1ccc2c(c1)c(=O)n(C)n2-c1cccs1)c1ccccc1 (stereo unspecified) | 3927
CCNC(=O)C1(C)CCN(C(=O)c2c(F)ccc(C)c2F)C1 (stereo unspecified) | 3818
Cc1cccc(C)c1-n1nnnc1C(c1ccnc2ccccc12)N(C)Cc1ccc(Cl)c(Cl)c1 (stereo unspecified) | 4369
CC1=C(C(=O)N(C(C)C)C(C)C)CC(CC(=O)NCc2cccc3ccccc23)C(=O)N1Cc1ccc(F)cc1 (stereo unspecified) | 5594
Nc1ncnc2c1ncn2[C@@H]1O[C@H](C(=O)N(CCC2=CCCCC2)CC2CC2)[C@@H](O)[C@H]1O | 5827
CS(=O)(=O)Nc1cccc(-c2ccc3nncn3c2)c1 | 3084
Cc1cnc(CNC(=O)C2(C)CCCN2CC(C)C)cn1 (stereo unspecified) | 3088
OC(c1ccc(F)c(F)c1)c1nc(-c2ccncc2)cs1 (stereo unspecified) | 2989
CSc1ccc(CN2CCC2(C)C(=O)NCc2cccc(C(F)(F)F)c2)cc1 (stereo unspecified) | 3652
CC(C)C(=O)N1CCC1(C)C(=O)Nc1cccc(Oc2ccccc2)c1 (stereo unspecified) | 3897
COC(=O)[C@@]1(Cc2ccc(F)cc2)[C@H]2c3cc(C(=O)N4CCCC4)n(Cc4ccc(C)o4)c3C[C@H]2CN1C(=O)c1ccccc1 | 4515
CC(=O)c1ccc2ccccc2c1OC(=O)c1ccncc1 | 3888
COc1ccc(CNC(=O)CCS(=O)(=O)c2ccc3nc(C)sc3c2)cc1 | 5943
N#Cc1ccccc1OCC(=O)Nc1ccc2c(c1)OCO2 | 3686
COc1ccccc1CNC(=O)COC(=O)c1cnc(C)cn1 | 3440
COc1ccc(NC(=O)Nc2cccc3[nH]c([C@@H]4O[C@H](CO)[C@@H](O)[C@H](O)[C@H]4O)nc23)cc1OC1CCCC1 | 5656
Cc1cccc(NC(=O)CSc2nc(=O)n(CCCN3CCOCC3)c3c2CCCC3)c1C | 3554

# Following part.
smiles | Bead autofluor
CCc1ccc(NC(=O)C(=O)NCCN2CCN(C(=O)c3ccc(OC)cc3)CC2)cc1 | 4151
Cc1ccc(C(=O)N2CCC(N3CCC(C(=O)N4CCOCC4)CC3)CC2)cc1 | 3451
O=C1NC[C@H](CCCCN2CCN(Cc3ccccc3)C(=O)C2=O)N(CC2CCCCC2)C1=O | 5659
O=S1(=O)N[C@@H](Cc2ccccc2)COc2cc(N3CCSCC3)ccc21 | 5249
O=C(c1ccco1)N1CCN(C(=O)c2[nH]c(C(F)(F)F)nc2-c2ccccc2)CC1 | 5740
C[C@@H]1CN([C@@H](C)CO)C(=O)CCCn2cc(nn2)CO[C@H]1CN(C)C(=O)Oc1ccccc1 | 2989
COc1ccc2c(CN(Cc3ccccc3)Cc3ccccc3)cc(=O)oc2c1 | 6000
CC(C)c1ccc(-n2nnnc2SCc2nc(N)nc(N)n2)cc1 | 3690
OC[C@@H]1CN(Cc2ccc3c(c2)OCO3)C[C@H](n2cnc3c(NCc4ccco4)ncnc32)O1 | 3679
CC(C)[C@@H]1Cc2[nH]c(=O)[nH]c(=O)c2[C@H](C)O1 | 5462

# An excerpt of these results, as labelled records.
Cc1ccc(C(=O)N2CCC(N3CCC(C(=O)N4CCOCC4)CC3)CC2)cc1
  Bead autofluor: 3451

COc1ccc2c(CN(Cc3ccccc3)Cc3ccccc3)cc(=O)oc2c1
  Bead autofluor: 6000

# Remaining list, next part
smiles | Bead autofluor
CCc1nc2c(OCCOc3ccccc3)cccn2c1N(C)C(=O)c1ccccc1F | 3432
CCOC(=O)C1=CCN(S(=O)(=O)c2ccccc2Cl)C1c1cccc(F)c1 (stereo unspecified) | 5601
CC1(C(=O)NS(=O)(=O)c2cccs2)CCN1C(=O)c1ccccc1 (stereo unspecified) | 3036
CCCNC(=O)C1(C)CCN(C(=O)c2ccc3c(c2)CCO3)C1 (stereo unspecified) | 3093
Cc1c(C(=O)NCc2ccc(C(C)C)cc2)sc(=O)n1Cc1ccc(S(=O)(=O)N(C)C)cc1 | 5202
CCC(=O)Nc1ccc(C(=O)NNC(=O)CCCCC(=O)NNC(=O)c2ccc(NC(=O)CC)cc2)cc1 | 2882
CCN(CC)C(=O)C1=C(C)N(Cc2ccc(C(C)(C)C)cc2)C(=O)C(CC(=O)NC2CCCC2)C1 (stereo unspecified) | 3863
O=C(O)c1cccc(-c2csc(C(O)(c3ccccc3)C(F)(F)F)n2)c1 (stereo unspecified) | 4073
CCOC(=O)[C@]12CCC=C1N(CCC1=CCCCC1)C(=O)[C@H](CC(=O)NCc1ccc(C)o1)C2 | 5770
COc1ccc(C(C)(O)c2nc(-c3ccc(N(C)C)cc3)cs2)cc1 (stereo unspecified) | 3799
O=C(/C=C/[C@H]1O[C@@H](n2cnc3c(NC(=O)c4ccccc4)ncnc32)[C@H](O)[C@@H]1O)NCCCc1ccccc1 | 5893
CCOc1cc(OCC)cc(C(=O)N2CCC[C@H]2C(=O)N2CCC[C@H]2C(=O)NCc2cccc(OC)c2)c1 | 5127
O=C(NCCc1ccccc1)C1Cc2c(-c3ccc4c(c3)OCO4)ccnc2O1 (stereo unspecified) | 2992
O=C(CC[C@H]1O[C@@H](n2ccc(=O)[nH]c2=O)[C@H](O)[C@@H]1O)N[C@H](Cc1ccccc1)C(=O)NCc1ccco1 | 4016
CCOC(=O)C1=C[C@@H](c2ccccc2)N(S(=O)(=O)c2ccc(C)cc2)[C@H]1c1ccc(F)cc1 | 4268
O=C(CSc1nnc2ccc(-c3ccccn3)nn12)Nc1cccc(F)c1 | 3857
COc1ccccc1C=C1CCc2ccccc2C1=O | 5575
C(=NOCc1ccccc1)c1ccccn1 | 3940
O=C(NCCc1cn[nH]c1)c1ccc2oc(CCc3ccccc3)nc2c1 | 2796
Cc1cnc(CNC(=O)c2csc([C@@H]3O[C@H](CO)[C@H](O)[C@H](O)[C@H]3O)n2)cn1 | 3722

# 4 compounds from above, arranged by molecular weight, ascending.
smiles | Bead autofluor
O=C(CSc1nnc2ccc(-c3ccccn3)nn12)Nc1cccc(F)c1 | 3857
CCOC(=O)C1=C[C@@H](c2ccccc2)N(S(=O)(=O)c2ccc(C)cc2)[C@H]1c1ccc(F)cc1 | 4268
O=C(CC[C@H]1O[C@@H](n2ccc(=O)[nH]c2=O)[C@H](O)[C@@H]1O)N[C@H](Cc1ccccc1)C(=O)NCc1ccco1 | 4016
O=C(/C=C/[C@H]1O[C@@H](n2cnc3c(NC(=O)c4ccccc4)ncnc32)[C@H](O)[C@@H]1O)NCCCc1ccccc1 | 5893

# Further compounds follow:
smiles | Bead autofluor
O=C(NC1CCCCC1)c1nc(C2CCNCC2)oc1-c1ccccc1 | 6118
CC[C@H](C)[C@H]1CNC(=S)N1CC1CCN(CC)CC1 | 2927
CC(C)C[C@@H]1COc2cc(N3CCN(C)CC3)ccc2S(=O)(=O)N1 | 5947
NC(CCc1ccccc1)c1csc(Nc2ccc(C(=O)NCCO)cc2)n1 (stereo unspecified) | 5135
COCCN(CCOC)Cc1cc(=O)oc2cc(C)c(Cl)cc12 | 4185
O=C(O)c1ccccc1NC(=O)C1CCN(S(=O)(=O)c2ccc3c(c2)OCCO3)CC1 | 2782
Cc1ccc(S(=O)(=O)N2CCCCC2)cc1NC(=O)c1ccco1 | 3674
COc1ccc(OCCN2CCC(C(=O)NC(c3ccccc3)c3ccc4ccccc4n3)CC2)cc1 (stereo unspecified) | 4183
CNc1cnc(-c2ccsc2)cn1 | 3395
Cc1ccc(S(=O)(=O)N2C[C@H]3[C@H]4C(=O)N(c5ccccc5)C(=O)[C@H]4C[C@H](OC(=O)NCC4CCCCC4)[C@@]3(O)C2)cc1 | 5216
S=C(CSc1ccccc1)Nc1cccc2ccccc12 | 3809
Cc1cscc1-c1nc(NCC2CC2)nc2ccsc12 | 3174
CC(=O)NC(c1cccc(F)c1)c1nc(-c2cccs2)cs1 (stereo unspecified) | 3820
Cn1c2ccccc2c(=O)c2ccc(Cl)cc21 | 3488
COc1cc(-c2cc3nc(NCCN(C)C)ccn3n2)cc(OC)c1OC | 4151
Cc1ccc(S(=O)(=O)N2C[C@H]3[C@H]4C(=O)N(C5CCCCC5)C(=O)[C@H]4CC(=O)[C@H]3[C@@H]2c2ccccc2Cl)cc1 | 5302
C[C@@H]1CCCCO[C@H](CN(C)C(=O)NC2CCCCC2)[C@@H](C)CN([C@H](C)CO)C(=O)c2cc(NC(=O)c3ccccc3)ccc2O1 | 3481
O=c1c2ccccc2c2ccccc2c(=O)n1Cc1ccc2c(c1)OCO2 | 3751
Cc1ccc(C(O)c2ncc(-c3ccccc3Cl)[nH]2)cc1 (stereo unspecified) | 3785
O=C1CCC(C(=O)OCC(=O)Nc2ccc(SC(F)F)cc2)=NN1 | 3905
c1ccc(NN(Cc2ccccn2)c2ccccc2)cc1 | 2946
COc1ccc(CN2CCC2(C)C(=O)NCc2ccc3c(c2)OCO3)c2ccccc12 (stereo unspecified) | 4016
CC1(C(=O)NS(=O)(=O)c2ccccc2)CCN1C(=O)c1ccccc1CCc1ccccc1 (stereo unspecified) | 2947
Cn1cc(C=O)c2nccnc21 | 4428
CSCCC(c1nnnn1C1CCCC1)N1CCC(n2c(=O)[nH]c3ccccc32)CC1 (stereo unspecified) | 5422
COc1cccc(CNC(=O)[C@@H]2CCCN2C(=O)[C@@H]2CCCN2)c1 | 4373
Brc1cccc(-c2nc3c4ccccc4ccn3c2Cc2ccsc2)c1 | 6117
CCCCNC(=O)C1(C)CCN1C(=O)c1ccc(F)c(C)c1 (stereo unspecified) | 3946
O=C(Nc1ccc2c(c1)OCCO2)C(CCc1ccccc1)N1CCN(C/C=C/c2ccccc2)CC1 (stereo unspecified) | 6113
CC1(C)CC(=O)C=C(c2ccccc2-c2ccc(S(C)(=O)=O)cc2)C1=O | 3410
CCCNC(=O)c1cc(C2CCCN(S(=O)(=O)c3ccccc3)C2)on1 (stereo unspecified) | 3820
COC(=O)[C@]12CCCCC=C1N(Cc1ccccc1)C(=O)[C@H](CC(=O)N1CCC(c3ccccc3)CC1)C2 | 5906
Cc1nnc(Cc2ccccc2)c2n[nH]c(C)c12 | 2990
